High-throughput results as filed in PubChem BioAssay.
AID923: qHTS Assay for Allosteric/Competitive Inhibitors of Caspase-1: Spectroscopic Profiling in AFC Spectral Region. 75,000 tested, 1.1% active. AID 923, 2007. compound fluorescence, AFC spectral region (405/520 nm); almost no hit is shown here. Potency, µM (series often up to 57.5 µM), inactives show at the highest dose fluorescence increase, actives largely listed as activators; active = well fitted activation curve with a large enough effect;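 also: 0% is about no effect; scaled to a free AFC standard on each plate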
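Baseline compound fluorescence (AFC region, 405 nm ex/520 nm em) taken from the intercept of kinetic reads with 50 nM caspase-1 and 5 uM Ac-WEHD-AFC; normalized to an on-plate AFC standard curve; compounds titrated up to 57 uM.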
Numbers without * were called inactive; & = joins results of further samples. Potency is read from the fitted curve at half-maximal effect.

Screening O=C(NC(=O)c1ccccc1Cl)Nc1ccc(OC(F)(F)F)cc1 returned AID923 -1.4%.
For COC(=O)COc1ccc(Cl)cc1Cl the results were AID923 0.0%.
Screening CCC(C)C(=O)OC1C(O)C2C(CN3CC(C)CCC3[C@]2(C)O)C2C[C@]34O[C@@]5(O)C(OC(=O)C(C)(O)CC)CCC3(C)C5C(OC(C)=O)C(OC(C)=O)C4[C@@]21O (stereo partly specified) returned AID923 -0.1%.
Screening COc1c(CC=C(C)C)c2c(c3oc(=O)c(-c4ccc(O)cc4)c(O)c13)C=CC(C)(C)O2 returned AID923 -1.4%.
`Clc1ccc(Cl)cc1` gave AID923 -2.4%.
COc1cc2c(cc1OC)C(C)NCC2 (stereo unspecified) was read as AID923 -1.4%&1.4%.
O=c1ccc2c(O)c3ccoc3cc2o1 was read as AID923 -0.5%.
O=C1NC(=O)C(=O)C(=O)N1 was read as AID923 -2.8%.
Screening CC1(C)C(=O)[C@@H]2OC2[C@@]2(C)C1CC(O)[C@]1(C)C2CC[C@@]2(C)C(c3ccoc3)OC(=O)C3OC312 (stereo partly specified) returned AID923 0.6%.
`C[C@@]12CCC3C(CC[C@@H]4CC(O)CC[C@@]34C)C1CCC2O` (stereo partly specified) gave AID923 -0.7%.
`NCC(=O)c1ccccc1` gave AID923 0.3%.
`O=C1C=C2C=C[C@@H]3C[C@@]2(O1)[C@H]1CCCCN31` gave AID923 -1.6%.
`COC1=CC23CCCN2CCc2cc4c(cc2C3C1O)OCO4` (stereo unspecified) gave AID923 -0.5%.
For CC(=O)OCC1=C(C(=O)O)N2C(=O)C(NC(=O)CCCC(N)C(=O)O)C2SC1 (stereo unspecified) the results were AID923 -1.8%.
Screening CN(C)C1C(=O)C(C(N)=O)=C(O)[C@@]2(O)C(=O)C3=C(O)c4c(O)ccc(Cl)c4[C@](C)(O)C3CC12 (stereo partly specified) returned AID923 5.9%.
NCC(N)C(=O)c1ccccc1 (stereo unspecified) was read as AID923 0.5%.
`C[C@]12CCC3C(C=CC4=CC(=O)CC[C@]43C)C1CC[C@]2(O)CCC(=O)O` (stereo partly specified) gave AID923 0.0%.
`C[C@]12CCC(=O)C=C1CCc1ccc(O)cc12` gave AID923 0.7%.
`CC(=O)Oc1ccc(Cl)c2cccnc12` gave AID923 0.4%.
CCCCCCCCCCCCCCCC[N+](C)(C)C was read as AID923 1.2%.

Six records drawn at random from those above:
For CC(=O)OCC1=C(C(=O)O)N2C(=O)C(NC(=O)CCCC(N)C(=O)O)C2SC1 (stereo unspecified) the results were AID923 -1.8%.
Screening CC1(C)C(=O)[C@@H]2OC2[C@@]2(C)C1CC(O)[C@]1(C)C2CC[C@@]2(C)C(c3ccoc3)OC(=O)C3OC312 (stereo partly specified) returned AID923 0.6%.
`C[C@@]12CCC3C(CC[C@@H]4CC(O)CC[C@@]34C)C1CCC2O` (stereo partly specified) gave AID923 -0.7%.
`COC1=CC23CCCN2CCc2cc4c(cc2C3C1O)OCO4` (stereo unspecified) gave AID923 -0.5%.
Screening CCC(C)C(=O)OC1C(O)C2C(CN3CC(C)CCC3[C@]2(C)O)C2C[C@]34O[C@@]5(O)C(OC(=O)C(C)(O)CC)CCC3(C)C5C(OC(C)=O)C(OC(C)=O)C4[C@@]21O (stereo partly specified) returned AID923 -0.1%.
`O=C1C=C2C=C[C@@H]3C[C@@]2(O1)[C@H]1CCCCN31` gave AID923 -1.6%.

In the list so far, these contain a carbonyl joined to an NH by a bond outside any ring:
Screening O=C(NC(=O)c1ccccc1Cl)Nc1ccc(OC(F)(F)F)cc1 returned AID923 -1.4%.
For CC(=O)OCC1=C(C(=O)O)N2C(=O)C(NC(=O)CCCC(N)C(=O)O)C2SC1 (stereo unspecified) the results were AID923 -1.8%.
Screening CN(C)C1C(=O)C(C(N)=O)=C(O)[C@@]2(O)C(=O)C3=C(O)c4c(O)ccc(Cl)c4[C@](C)(O)C3CC12 (stereo partly specified) returned AID923 5.9%.

The results go on:
For NC(=O)CS(=O)C(c1ccccc1)c1ccccc1 (stereo unspecified) the results were AID923 1.9%.
For N#Cc1c(Cl)cccc1Cl the results were AID923 -1.2%.
For COc1nc(NC(C)C)nc(NC(C)C)n1 the results were AID923 -0.9%.
COC1C(O)C(C)O[C@@H](OC2CC[C@@]3(C)C4CC[C@]5(C)C(C6=CC(=O)OC6)CC[C@@]5(O)C4CC[C@@H]3C2)C1O (stereo partly specified) was read as AID923 1.1%.
C[N+]1(C)C2CC(OC(=O)C(CO)c3ccccc3)CC1C1OC12 (stereo unspecified) was read as AID923 -1.1%.
CC(C)=CCCC1(C)C=Cc2c(O)c3c(c(CC=C(C)C)c2O1)OC12C(=CC4CC1C(C)(C)OC2(C/C=C(/C)C(=O)O)C4O)C3=O (stereo unspecified) was read as AID923 -1.9%.
Screening CCC1C2CC3C4N(C)c5ccccc5[C@]45CC(C2C5O)N3C1O (stereo partly specified) returned AID923 0.1%.
For C=C1C2CC[C@@]3(C)C(c4ccoc4)OC(=O)C[C@@]13OC1CC(=O)C(C)(C)C(C(OC(C)=O)C(=O)OC)[C@@]12C (stereo partly specified) the results were AID923 -1.1%.
For N#Cc1nn(-c2c(Cl)cc(C(F)(F)F)cc2Cl)c(N)c1S(=O)C(F)(F)F (stereo unspecified) the results were AID923 -2.6%.
For C[C@]12CCC3C(CC[C@]4(O)C[C@@H](O)CC[C@]34C=O)[C@@]1(O)CC[C@@H]2C1=CC(=O)OC1 (stereo partly specified) the results were AID923 -1.3%.
For CCCN1[C@@H]2C[C@@H](O)CC[C@@H]2C[C@H]1C(=O)OC the results were AID923 2.7%.

Structural class, the entries above containing an aryl methoxy group (3)
Screening COc1c(CC=C(C)C)c2c(c3oc(=O)c(-c4ccc(O)cc4)c(O)c13)C=CC(C)(C)O2 returned AID923 -1.4%.
COc1cc2c(cc1OC)C(C)NCC2 (stereo unspecified) was read as AID923 -1.4%&1.4%.
For COc1nc(NC(C)C)nc(NC(C)C)n1 the results were AID923 -0.9%.

Only part of the results is shown; the hit share may differ from the screen's.
